A1 apoptosis 2: A1 inhibition read as caspase activation; 24,000 tested, under 10 active; caspase activation, % (test concentration not listed); MEF A1-2A-BIM cells, caspase-Glo luminescence, 3 h; percent of clofoctol response, DMSO zero; AID 2465; in the data active = caspase activation above about 5.9%;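 note: wells of about 30 µL received 50 nL stock; the first replicate is given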
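Evaluation: Caspase-3/7 activity from luminescence increase | Assay system: A1-2A-BIM mouse embryonic fibroblasts | Quantity: 2500 MEF cells/well | Medium: RPMI-1640 plus 10% FBS | Detection: Caspase-Glo 3/7 luminescence, 1 h at room temperature | Dosing: 50 nL compound per well, pinned | Timing: Cells settled overnight, compound exposure 3 h at 37 °C, 5% CO2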
Numbers without * were called inactive.

SMILES	A1 apoptosis 2
CC(C)NC(=O)Nc1ccc2c(c1)C(=O)N([C@H](C)CO)C[C@@H](C)[C@@H](CN(C)S(=O)(=O)c1ccc(Cl)cc1)OCCCC[C@@H](C)O2	-1.0
Cc1ccc(S(=O)(=O)Nc2ccc3c(c2)C(=O)N([C@H](C)CO)C[C@@H](C)[C@@H](CN(C)Cc2ccccc2)O3)cc1	-1.5
C[C@@H]1CN([C@H](C)CO)C(=O)c2cc(NS(=O)(=O)c3ccc(F)cc3)ccc2O[C@H]1CN(C)Cc1ccc(C(=O)Nc2ccccc2N)cc1	0.7
COc1ccc(CN(C)C[C@@H]2Oc3ccc(NS(=O)(=O)c4c(C)noc4C)cc3CC(=O)N([C@H](C)CO)C[C@@H]2C)cc1	0.3
C[C@@H]1CN([C@@H](C)CO)C(=O)c2cc(NC(=O)Cc3ccccc3)ccc2O[C@@H](C)CCCCO[C@@H]1CN(C)Cc1ccncc1	-0.3
C[C@H](CO)N1C[C@H](C)[C@@H](CN(C)Cc2ccccc2)Oc2ccc(NC(=O)Nc3cccc4ccccc34)cc2CC1=O	0.5
C[C@H](CO)N1C[C@H](C)[C@H](CN(C)C(=O)Nc2ccc(C(F)(F)F)cc2)Oc2c(NC(=O)CCCCCC(=O)Nc3ccccc3N)cccc2C1=O	0.3
C[C@@H]1CN([C@@H](C)CO)C(=O)c2cccc(NC(=O)c3ccncc3)c2O[C@@H]1CN(C)C(=O)Nc1ccc(C(F)(F)F)cc1	-0.6
Cc1ccc(S(=O)(=O)N2CCC[C@H]2CN=[N+]=[N-])cc1	1.2
C[C@@H]1CN([C@@H](C)CO)C(=O)Cc2cc(NS(=O)(=O)c3ccccc3)ccc2O[C@H]1CN(C)Cc1ccccc1	-0.3
C[C@@H]1CN([C@@H](C)CO)C(=O)Cc2cc(NC(=O)Cc3ccccc3)ccc2O[C@@H]1CN(C)S(C)(=O)=O	0.4
C[C@H]1CN([C@@H](C)CO)C(=O)Cc2cc(NC(=O)c3ccncc3)ccc2O[C@@H]1CN(C)Cc1ccc(C(=O)Nc2ccccc2N)cc1	0.1
Cc1noc(C)c1NC(=O)N(C)C[C@@H]1Oc2c(cccc2N(C)C)C(=O)N([C@@H](C)CO)C[C@H]1C	0.0
C[C@@H]1CN([C@H](C)CO)C(=O)c2cc(NC(=O)Cc3ccccc3)ccc2O[C@@H]1CN(C)Cc1ccc2c(c1)OCO2	-0.4
Cc1noc(C)c1NC(=O)Nc1ccc2c(c1)C(=O)N([C@@H](C)CO)C[C@H](C)[C@@H](CN(C)Cc1ccc3c(c1)OCO3)O2	-0.5
C[C@@H]1CCCCO[C@H](CN(C)Cc2ccc(Cl)c(Cl)c2)[C@@H](C)CN([C@@H](C)CO)C(=O)c2cc(NC(=O)Nc3ccc(F)cc3)ccc2O1	2.2
CCO[C@H]1OC(C(=O)O)=C[C@@H](c2ccc3c(c2)OCO3)[C@@H]1CCCO	-0.3
C[C@H]1CN([C@@H](C)CO)C(=O)CCCn2cc(nn2)CO[C@@H]1CN(C)C(=O)Nc1ccc(C(F)(F)F)cc1	-0.6
Cc1ccc(S(=O)(=O)N(C)C[C@H]2Oc3ccc(NC(=O)C4CC4)cc3CC(=O)N([C@H](C)CO)C[C@H]2C)cc1	-0.4
C[C@@H]1CN([C@H](C)CO)C(=O)c2cc(NC(=O)Nc3ccc4c(c3)OCO4)ccc2O[C@@H](C)CCCCO[C@H]1CN(C)Cc1ccc(C(=O)O)cc1	-0.7

Grouped by structure, the compounds so far containing fluorine
SMILES	A1 apoptosis 2
C[C@@H]1CN([C@H](C)CO)C(=O)c2cc(NS(=O)(=O)c3ccc(F)cc3)ccc2O[C@H]1CN(C)Cc1ccc(C(=O)Nc2ccccc2N)cc1	0.7
C[C@H](CO)N1C[C@H](C)[C@H](CN(C)C(=O)Nc2ccc(C(F)(F)F)cc2)Oc2c(NC(=O)CCCCCC(=O)Nc3ccccc3N)cccc2C1=O	0.3
C[C@@H]1CN([C@@H](C)CO)C(=O)c2cccc(NC(=O)c3ccncc3)c2O[C@@H]1CN(C)C(=O)Nc1ccc(C(F)(F)F)cc1	-0.6
C[C@@H]1CCCCO[C@H](CN(C)Cc2ccc(Cl)c(Cl)c2)[C@@H](C)CN([C@@H](C)CO)C(=O)c2cc(NC(=O)Nc3ccc(F)cc3)ccc2O1	2.2
C[C@H]1CN([C@@H](C)CO)C(=O)CCCn2cc(nn2)CO[C@@H]1CN(C)C(=O)Nc1ccc(C(F)(F)F)cc1	-0.6

Next results:
SMILES	A1 apoptosis 2
O=C(CCCCC(=O)N/N=C/c1ccc(Br)s1)NO	-0.9
C[C@@H]1CCCCO[C@@H](CN(C)S(C)(=O)=O)[C@H](C)CN([C@@H](C)CO)C(=O)c2cc(NC(=O)C3CCCCC3)ccc2O1	-0.7
C[C@@H]1CN([C@@H](C)CO)C(=O)c2cc(NC(=O)Cc3ccccc3)ccc2O[C@@H]1CN(C)C(=O)Nc1ccccc1	1.7
C[C@@H]1CCCCO[C@H](CN(C)S(=O)(=O)c2ccc(Cl)cc2)[C@H](C)CN([C@@H](C)CO)C(=O)c2cc(NS(=O)(=O)c3cccs3)ccc2O1	0.1
Cc1noc(C)c1S(=O)(=O)N(C)C[C@@H]1Oc2ccc(NS(=O)(=O)c3ccc(F)cc3)cc2CC(=O)N([C@H](C)CO)C[C@@H]1C	-0.8
Cc1noc(C)c1NC(=O)N(C)C[C@@H]1OCCCC[C@H](C)Oc2ccc(NC(=O)c3ccncc3)cc2C(=O)N([C@H](C)CO)C[C@H]1C	-0.5
C[C@H](CO)N1C[C@H](C)[C@H](CN(C)C(=O)Nc2ccc3c(c2)OCO3)Oc2ncc(Br)cc2C1=O	0.0
C[C@H](CO)N1C[C@H](C)[C@@H](CN(C)Cc2ccncc2)Oc2c(NC(=O)Nc3ccc(C(F)(F)F)cc3)cccc2C1=O	0.1
COc1ccc(CN(C)C[C@H]2Oc3c(NC(=O)Nc4cccc5ccccc45)cccc3C(=O)N([C@H](C)CO)C[C@H]2C)cc1	-0.7
C[C@H]1CN([C@@H](C)CO)C(=O)Cc2cc(NC(=O)Nc3ccc(F)cc3)ccc2O[C@H]1CN(C)Cc1ccc(-c2ccccc2)cc1	1.3
Cc1noc(C)c1NC(=O)N(C)C[C@H]1Oc2ccc(NC(=O)Cc3ccccc3)cc2CC(=O)N([C@@H](C)CO)C[C@@H]1C	-0.2
C[C@@H]1CN([C@@H](C)CO)C(=O)c2cccc(NC(=O)c3ccc(-c4nccs4)cc3)c2O[C@@H]1CN(C)S(=O)(=O)c1ccc(F)cc1	-0.7
COc1ccc(S(=O)(=O)N(C)C[C@@H]2OCCCC[C@H](C)Oc3ccc(NC(=O)Nc4cccc5ccccc45)cc3C(=O)N([C@@H](C)CO)C[C@H]2C)cc1	0.5
Cc1ccc(S(=O)(=O)N(C)C[C@H]2Oc3ccc(NC(=O)Cc4cn(C)c5ccccc45)cc3C(=O)N([C@H](C)CO)C[C@H]2C)cc1	-1.3
C[C@H](CO)N1C[C@H](C)[C@H](CN(C)Cc2ccc(Cl)c(Cl)c2)Oc2c(NS(C)(=O)=O)cccc2C1=O	-0.6
Cc1ccc(S(=O)(=O)Nc2cccc3c2O[C@@H](CN(C)Cc2ccc(C(=O)O)cc2)[C@@H](C)CN([C@H](C)CO)C3=O)cc1	-0.8
C=CC[C@]1(C(=O)NCCCOC)COC(c2ccc(OCCCO)cc2)=N1	0.4
C[C@H]1CN([C@@H](C)CO)C(=O)c2cc(NS(=O)(=O)c3ccc(Cl)cc3)ccc2O[C@@H]1CN(C)Cc1ccc(-c2ccccc2)cc1	-0.8
CC(C)NC(=O)N(C)C[C@@H]1Oc2ccc(NC(=O)Nc3ccc(C(F)(F)F)cc3)cc2C(=O)N([C@H](C)CO)C[C@H]1C	0.0
O=C(C1=C[C@@H](C2CC2)C[C@@H](OCc2ccc(CO)cc2)O1)N1CCOCC1	-0.2
C[C@@H]1CN([C@@H](C)CO)C(=O)CCCn2cc(nn2)CO[C@@H]1CN(C)C(=O)CCCN(C)C	-0.1
C[C@@H]1CCCCO[C@H](CN(C)C(=O)c2ccccc2)[C@@H](C)CN([C@H](C)CO)C(=O)c2cc(NS(=O)(=O)c3ccccc3)ccc2O1	-0.8
C[C@@H]1CN([C@@H](C)CO)C(=O)c2cc(NC(=O)Nc3ccc(F)cc3)ccc2O[C@H]1CN(C)S(=O)(=O)c1cn(C)cn1	-0.4
Cc1noc(C)c1S(=O)(=O)Nc1ccc2c(c1)C(=O)N([C@H](C)CO)C[C@H](C)[C@@H](CN(C)Cc1ccc(C(F)(F)F)cc1)O2	-0.3
CCC#CCN(Cc1ccccc1Br)[C@H](/C=C/c1ccccc1)[C@@H](O)Cc1ccccc1	-0.1
COc1ccc(S(=O)(=O)N(C)C[C@H]2OCCCC[C@@H](C)Oc3ccc(NS(=O)(=O)c4ccc(Cl)cc4)cc3C(=O)N([C@H](C)CO)C[C@@H]2C)cc1	-0.7
COc1ccc(NC(=O)N(C)C[C@H]2OCCCC[C@H](C)Oc3ccc(NS(=O)(=O)c4ccc(OC)cc4)cc3C(=O)N([C@@H](C)CO)C[C@@H]2C)cc1	-0.7
C[C@@H]1CCCCO[C@H](CN(C)Cc2ccncc2)[C@@H](C)CN([C@H](C)CO)C(=O)c2cc(NS(=O)(=O)c3cn(C)cn3)ccc2O1	0.4
C[C@@H]1CN([C@H](C)CO)C(=O)Cc2cc(NC(=O)NC3CCCCC3)ccc2O[C@H]1CN(C)S(=O)(=O)c1cn(C)cn1	2.0
COc1ccc(NC(=O)Nc2ccc3c(c2)C(=O)N([C@H](C)CO)C[C@@H](C)[C@@H](CN(C)C(=O)Nc2ccc(OC)cc2)OCCCC[C@@H](C)O3)cc1	0.5
Cc1noc(C)c1S(=O)(=O)Nc1ccc2c(c1)C(=O)N([C@@H](C)CO)C[C@H](C)[C@@H](CN(C)C(=O)C1CCCCC1)OCCCC[C@@H](C)O2	0.1
Cc1cc(C(=O)Nc2cccc3c2O[C@@H](CN(C)C(=O)NC(C)C)[C@@H](C)CN([C@@H](C)CO)C3=O)n(C)n1	-0.1
COCCOC(=O)N1C(=O)[C@@]2(c3ccccc31)[C@H](c1ccc(O)cc1)N1[C@H](c3ccccc3)[C@H](c3ccccc3)OC(=O)[C@H]1[C@@H]2C(=O)NC[C@H](O)c1ccccc1	1.0
C[C@@H]1CN([C@@H](C)CO)C(=O)c2cc(NC(=O)Nc3ccc4c(c3)OCO4)ccc2O[C@H]1CN(C)C(=O)Nc1ccccc1	1.0
COc1ccc(NC(=O)N(C)C[C@@H]2Oc3ncc(-c4cccc(C(F)(F)F)c4)cc3C(=O)N([C@H](C)CO)C[C@@H]2C)cc1	-0.8
CC(C)NC(=O)Nc1cccc2c1O[C@H](CN(C)S(=O)(=O)c1cn(C)cn1)[C@H](C)CN([C@@H](C)CO)C2=O	1.1
C[C@@H]1CN([C@@H](C)CO)C(=O)c2cccc(NS(=O)(=O)c3ccc(F)cc3)c2O[C@@H]1CN(C)C(=O)Nc1ccccc1	-0.2
CC(C)NC(=O)Nc1ccc2c(c1)C(=O)N([C@@H](C)CO)C[C@@H](C)[C@@H](CN(C)S(=O)(=O)c1ccc(F)cc1)OCCCC[C@@H](C)O2	0.7
C[C@@H]1CCCCO[C@@H](CN(C)C(=O)Nc2cccc3ccccc23)[C@H](C)CN([C@H](C)CO)C(=O)c2cc(NC(=O)c3ccncc3)ccc2O1	-1.1
COC(=O)N(C)C[C@@H]1OCc2cnnn2CCCC(=O)N([C@H](C)CO)C[C@H]1C	0.2

An excerpt of these results, bar-delimited:
Molecule | A1 apoptosis 2
COc1ccc(NC(=O)Nc2ccc3c(c2)C(=O)N([C@H](C)CO)C[C@@H](C)[C@@H](CN(C)C(=O)Nc2ccc(OC)cc2)OCCCC[C@@H](C)O3)cc1 | 0.5
Cc1noc(C)c1S(=O)(=O)Nc1ccc2c(c1)C(=O)N([C@@H](C)CO)C[C@H](C)[C@@H](CN(C)C(=O)C1CCCCC1)OCCCC[C@@H](C)O2 | 0.1

Continued:
SMILES	A1 apoptosis 2
CC(C)NC(=O)N(C)C[C@@H]1Oc2ccc(NC(=O)Nc3ccc4c(c3)OCO4)cc2CC(=O)N([C@@H](C)CO)C[C@H]1C	-0.8
C[C@@H]1CN([C@@H](C)CO)C(=O)c2cccc(NC(=O)C3CCOCC3)c2O[C@@H]1CN(C)S(=O)(=O)c1ccc(Cl)cc1	-0.9
COC(=O)N(C)C[C@@H]1OCc2cn(nn2)CCCC(=O)N([C@@H](C)CO)C[C@H]1C	1.7
C[C@H](CO)N1C[C@H](C)[C@H](CN(C)C(=O)NC2CCCCC2)Oc2ccc(NC(=O)Cn3cnnn3)cc2CC1=O	0.8
C[C@@H]1CN([C@H](C)CO)C(=O)CCCn2cc(nn2)CO[C@@H]1CN(C)C(=O)c1ccncc1	0.7
C[C@@H]1CN([C@@H](C)CO)C(=O)Cc2cc(NC(=O)Cc3cn(C)c4ccccc34)ccc2O[C@H]1CN(C)C(=O)Nc1ccc(C(F)(F)F)cc1	0.3
O=C1O[C@H](c2ccccc2)[C@H](c2ccccc2)N2[C@H]1[C@@H](C(=O)N1CCN(c3ncccn3)CC1)[C@]1(C(=O)Nc3ccc(C#CCCO)cc31)[C@H]2c1ccc(O)cc1	0.5
COc1ccccc1NC(=O)N(C)C[C@@H]1OCc2cn(nn2)CCCC(=O)N([C@H](C)CO)C[C@@H]1C	0.5
C[C@H]1CN([C@@H](C)CO)C(=O)c2cccc(NC(=O)c3ccc(-c4nccs4)cc3)c2O[C@H]1CN(C)Cc1ccc(Cl)c(Cl)c1	0.3
CNC[C@@H]1Oc2ncc(-c3ccccc3)cc2C(=O)N([C@H](C)CO)C[C@@H]1C	-0.4
C[C@H](CO)N1C[C@H](C)[C@@H](CN(C)C(=O)Nc2ccc(C(F)(F)F)cc2)Oc2ccc(NC(=O)Nc3ccc4c(c3)OCO4)cc2C1=O	-0.1
Cc1noc(C)c1S(=O)(=O)Nc1ccc2c(c1)CC(=O)N([C@@H](C)CO)C[C@@H](C)[C@H](CN(C)Cc1ccc(C(F)(F)F)cc1)O2	0.0

The list is partial, so the mix of outcomes need not match the whole.
